Bioassay records as filed in PubChem BioAssay.
VDR inhibitor – Inhibitors of the vitamin D receptor (VDR): qHTS; Vitamin D3 receptor (Homo sapiens), P11473; VDR-SRC2-3 peptide fluorescence polarization, 2 h; Potency, µM, for inactives: max response, negative = inhibition, usual class: inhibitors; actives 0.93% (n = 400,000); active = well fitted inhibition curve with a large enough effect; inconclusive = small, poorly fitted or top-dose-only effect, or another doubt; inactive = no such curve, though single readings can be large or run the other way; also: series mostly up to about 120 µM
Target sequence (P11473 whole entry, looked up): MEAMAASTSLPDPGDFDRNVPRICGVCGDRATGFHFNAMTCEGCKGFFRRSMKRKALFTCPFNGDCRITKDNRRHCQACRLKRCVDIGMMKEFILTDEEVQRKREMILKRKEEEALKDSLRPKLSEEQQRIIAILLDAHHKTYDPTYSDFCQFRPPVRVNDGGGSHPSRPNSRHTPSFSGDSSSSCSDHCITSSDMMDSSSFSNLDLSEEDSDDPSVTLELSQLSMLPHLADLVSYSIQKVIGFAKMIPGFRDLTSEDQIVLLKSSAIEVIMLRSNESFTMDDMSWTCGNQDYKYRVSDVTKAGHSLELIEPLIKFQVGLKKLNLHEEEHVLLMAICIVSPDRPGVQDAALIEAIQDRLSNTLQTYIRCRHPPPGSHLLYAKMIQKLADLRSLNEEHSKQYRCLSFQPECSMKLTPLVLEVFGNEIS
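Two reagent solutions held at 4 deg C in the dark were dispensed, compounds pinned at 23 nl, and the mixture incubated 2 h at room temperature. Read-out: fluorescence polarization of VDR–SRC2-3 peptide binding.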
Active calls of the source: *; & = joins results of further samples. % is scaled to controls: 0 for no effect and ±100 for the full control effect; potency is read from the fitted curve at half-maximal effect.

Results for Cc1ccc(C(=O)NCC(=O)OCN2C(=O)c3ccccc3C2=O)cc1C ?
VDR inhibitor: -8%

What do the screens show for `N#Cc1c2c(c(-c3ccccc3Cl)[nH]c1=S)CCCC2`?
VDR inhibitor: 3%

Results for Cc1ccc(N(CC(=O)NCc2ccccn2)S(=O)(=O)c2ccccc2)cc1C ?
VDR inhibitor: -15%

Results for CN(C)C1(CNC(=S)Nc2ccccc2C(F)(F)F)CCCCC1 ?
VDR inhibitor: -18%

How did CN(C(=O)c1ccc2c(Cl)c3c(nc2c1)CCC3)c1ccccc1F do in these assays?
VDR inhibitor: -24%

What do the screens show for `Cc1nc(Cl)cc(N/N=C/c2ccccc2)n1`?
VDR inhibitor: inconclusive

Results for FC(F)Oc1ccc(-n2cc(-c3ccccc3)[n+]3c2CCCCC3)cc1 ?
VDR inhibitor: -5%

How did CCOC(=O)c1ccc(NC(=S)N2CCN(CCN=CC3=C(O)CC(C)(C)CC3=O)CC2)cc1 do in these assays?
VDR inhibitor: -21%

Results for O=C(NNC(=O)c1cc2ccccc2cc1O)NC1CCCCC1 ?
VDR inhibitor: 20%

What do the screens show for `Fc1ccc(COc2ccc(Br)cc2CNCC2CCCO2)cc1` (centres undefined)?
VDR inhibitor: 21%

How did O=C(NCCN1CCCCC1)Nc1cccc(C(F)(F)F)c1 do in these assays?
VDR inhibitor: 2%

How did CCN1C(=O)CSC1=NC1C2CC3CC(C2)CC1C3 (centres undefined) do in these assays?
VDR inhibitor: -5%

What do the screens show for `C[C@H](CO)N1C[C@H](C)[C@@H](CN(C)S(C)(=O)=O)Oc2ccc(NC(=O)C3CC3)cc2C1=O`?
VDR inhibitor: 2%

What do the screens show for `O=S1(=O)CC(NCc2ccccc2)C(Nc2ccccc2)C1` (centres undefined)?
VDR inhibitor: -11%

What do the screens show for `CC1CCc2c(sc3ncnc(SCC(=O)c4ccccc4)c23)C1` (centres undefined)?
VDR inhibitor: 1%

Results for CCCN(CCC)S(=O)(=O)c1ccc(C(=O)Nc2c(C)n(C)n(-c3ccccc3)c2=O)cc1 ?
VDR inhibitor: -15%

How did Clc1ccc(-c2nc3cnccn3c2Nc2ccc3c(c2)OCO3)cc1 do in these assays?
VDR inhibitor: -9%

How did CC1(C)CCC[C@]2(C)[C@H]3Cc4cc(O)ccc4O[C@]3(C)CC[C@@H]12 do in these assays?
VDR inhibitor: -18%

What do the screens show for `C=CCNc1nc(-c2ccccc2)c(C(=O)OCC)cc1C#N`?
VDR inhibitor: -12%

What do the screens show for `Cc1nc2cc3c(cc2c(C)c1C(=O)OC(C)C)OCO3`?
VDR inhibitor: inconclusive

How did CC(Sc1n[nH]c(-c2ccccc2)n1)C(=O)c1c(N)n(C)c(=O)n(C)c1=O (centres undefined) do in these assays?
VDR inhibitor: -3%

What do the screens show for `CCN(CC)/[N+]([O-])=N/Oc1cc(O/[N+]([O-])=N/N2CCCC2CO)c([N+](=O)[O-])cc1[N+](=O)[O-]` (centres undefined)?
VDR inhibitor: -17%

What do the screens show for `COC(=O)c1cc(NC(=O)C2COc3ccccc3O2)cc(C(=O)OC)c1` (centres undefined)?
VDR inhibitor: 29%

How did Cc1ccc(C(=O)Nc2cccc(-c3cn4ccccc4n3)c2)cc1 do in these assays?
VDR inhibitor: 20%

How did CN(C(=O)Cn1c(=O)oc2cc(S(=O)(=O)N3CCCC3)ccc21)C1CCCCC1 do in these assays?
VDR inhibitor: 12%

How did COc1ccc(-c2[nH]c(-c3cccc(OC)c3)nc2SCC(=O)NC2CCCC2)cc1 do in these assays?
VDR inhibitor: 3%&-7%

How did CN1C[C@@H]2[C@@H]3C(=O)N(C)C(=O)[C@@H]3[C@](Cc3ccccc3)(C1=O)N2C(=O)c1ccc(F)cc1 do in these assays?
VDR inhibitor: -10%

What do the screens show for `CN(C)c1cccc2c1c(NS(=O)(=O)c1cn(C)cn1)nn2C`?
VDR inhibitor: -23%

What do the screens show for `CCOC(=O)c1cccc(S(=O)(=O)N2CCCC2)c1`?
VDR inhibitor: -2%

Results for CCNC(=S)N(CCc1c(C)[nH]c2ccc(F)cc12)Cc1cccnc1 ?
VDR inhibitor: -29%

Results for Cc1ccc(SC[C@H](c2ccccc2)N2CCN(C)CCC2=O)cc1 ?
VDR inhibitor: -2%

What do the screens show for `COC(=O)c1cccc(Cn2c(Cl)c(/C=N/Nc3ccccc3C)sc2=O)c1`?
VDR inhibitor: -24%

How did CCC(=O)Oc1ccc(C(CC)C(CC)c2ccc(OC(=O)CC)cc2)cc1 (centres undefined) do in these assays?
VDR inhibitor: 1%

What do the screens show for `CC(C)CCN1CCN(Cc2cccn2-c2ccccn2)CC1CCO` (centres undefined)?
VDR inhibitor: -20%

How did CC(=O)Nc1ccc(N(C(=O)Cn2nnc3ccccc32)C(C(=O)NCc2ccccc2)c2ccc(C)cc2)cc1 (centres undefined) do in these assays?
VDR inhibitor: -9%

How did CC(OC(=O)CCN=C1NS(=O)(=O)c2ccccc21)C(=O)Nc1ccc(N(C)C)cc1 (centres undefined) do in these assays?
VDR inhibitor: -13%

Results for OC(COCc1ccccc1)CN1CCN(c2ccccc2F)CC1 (centres undefined) ?
VDR inhibitor: 1%

How did COc1ccc(CCNS(=O)(=O)c2ccc3c(c2)CCN3C(=O)CCC(=O)O)cc1OC do in these assays?
VDR inhibitor: 20%

Results for C#CCN(C(=O)c1ccc(OC2CCN(Cc3ccccn3)CC2)cc1)C1CCCCC1 ?
VDR inhibitor: 15%

How did CC1CC(C)(C)CC2(C1)NC(=O)N(CC(=O)NCc1ccccc1F)C2=O (centres undefined) do in these assays?
VDR inhibitor: -6%

Results for COc1ccc(CNC(=O)c2ccc3c(c2)N(Cc2ccccc2C)C(=O)c2ccccc2S3=O)cc1 (centres undefined) ?
VDR inhibitor: 12%

Results for Cc1ccccc1C(=O)N1CCC(C(=O)Nc2nc3ccc(F)cc3s2)CC1 ?
VDR inhibitor: -5%

What do the screens show for `COC(=O)[C@]1(C)CCC[C@@]2(C)C3CC[C@@]4(C)C[C@]3(CC[C@H]12)C[C@H]4O` (some centres undefined)?
VDR inhibitor: -17%

Results for CN(Cc1ccccc1)S(=O)(=O)c1cccc2nsnc12 ?
VDR inhibitor: -5%

How did COc1ccc(OC)c(-c2cc(C(F)(F)F)c3c(n2)sc2c(O)cc(=O)[nH]c23)c1 do in these assays?
VDR inhibitor: -9%

Results for Nc1c(-c2ccccc2)n[nH]c1-c1ccccc1 ?
VDR inhibitor: -10%

What do the screens show for `Cc1cc(C)c(C(=O)N2CCCC(Nc3ccc(F)cc3)C2)o1` (centres undefined)?
VDR inhibitor: 0%

Results for COc1ccc(NC(=O)CC(C)n2nc(C)cc2C)cc1Cl (centres undefined) ?
VDR inhibitor: 8%

What do the screens show for `COCC(=O)Nc1ccccc1-c1ccccc1`?
VDR inhibitor: -4%

Results for COc1ccc(CNC(=O)CCC(=O)N2CCN(S(=O)(=O)c3ccc(Cl)cc3)CC2)cc1 ?
VDR inhibitor: -11%

What do the screens show for `CC(=O)C[C@H](O)CC(=O)[C@H]1OC(=O)[C@H](C)CCCCc2ccccc21`?
VDR inhibitor: 0%

Results for Cc1ccccc1Nc1nnc(SCC(=O)c2c(N)n(C3CC3)c(=O)[nH]c2=O)s1 ?
VDR inhibitor: -20%

Results for CCN(Cc1ccncc1)Cc1cn[nH]c1-c1cc(OC)c(OC)c(OC)c1 ?
VDR inhibitor: -3%

Results for Cc1cc(N(C)C)c(C#N)c(N2CCOCC2)n1 ?
VDR inhibitor: 5%

Results for CCN1CCN(Cc2ccccc2NC(=O)Nc2ccc(C)cc2)CC1 ?
VDR inhibitor: 1%

Results for C=C1C2=CC(=O)OC(c3ccoc3)[C@]2(C)CCC1[C@]1(C)C=CC(=O)C(C)(C)C1CC(=O)OC (some centres undefined) ?
VDR inhibitor: 40µM*

Results for Cc1cc(NC(=O)CSc2nccn2C)n(-c2ccccc2)n1 ?
VDR inhibitor: 1%

What do the screens show for `CC(=O)Nc1ccc(S(=O)(=O)N(C)CC(=O)OCC(=O)NCc2ccco2)cc1`?
VDR inhibitor: -13%

Results for O=C(CSc1nnc(SCc2cccc3ccccc23)s1)N/N=C/C=C/c1ccccc1[N+](=O)[O-] ?
VDR inhibitor: -10%

What do the screens show for `CCS(=O)(=O)N1CCC(C(=O)NCC2CCCO2)CC1` (centres undefined)?
VDR inhibitor: -8%

What do the screens show for `O=C(CN1C(=O)COc2ccc(S(=O)(=O)N3CCCCCC3)cc21)N1CCN(c2ccc(F)cc2)CC1`?
VDR inhibitor: 1%

Results for CC(C)c1nc(SCC(=O)Nc2c[nH]c(=O)[nH]c2=O)c2cnn(-c3ccccc3)c2n1 ?
VDR inhibitor: 2%

Results for CCN(CC(=O)Nc1c(F)cccc1F)C(=O)CN1C(=O)c2ccccc2C1=O ?
VDR inhibitor: 1%

What do the screens show for `COc1cccc(NC(=O)c2ccccc2SC)c1`?
VDR inhibitor: -16%

Results for COc1cc(NC(=O)CN2C(=O)CN(C)C(=O)c3ccccc32)cc(OC)c1OC ?
VDR inhibitor: 6%

What do the screens show for `CCCCC(CC)C1OCC(C[N+]2(C)CCOCC2)O1` (centres undefined)?
VDR inhibitor: -7%

What do the screens show for `COc1ccc(N(CC(=O)Nc2ccccc2C(=O)NCc2ccco2)S(C)(=O)=O)cc1`?
VDR inhibitor: 2%

Results for O=c1c2ccccc2[nH]c(=S)n1CCCN1CCOCC1 ?
VDR inhibitor: -12%

Results for Cc1cc(C)cc(NC(=O)CSc2nccn2Cc2ccco2)c1 ?
VDR inhibitor: 7%

What do the screens show for `O=C(NNC(=O)c1cc(Cl)nc2ccccc12)c1ccccc1F`?
VDR inhibitor: -8%

How did CC(C)Sc1oc(-c2cccs2)nc1S(=O)(=O)c1ccc(Cl)cc1 do in these assays?
VDR inhibitor: 11%

Results for O=C(NCC1CCCO1)/C(=C\c1ccccc1F)NC(=O)c1ccccc1 (centres undefined) ?
VDR inhibitor: -25%

How did COc1cccc(NC(=O)CSc2cc(C)[nH]c(=O)n2)c1 do in these assays?
VDR inhibitor: -3%

Results for CC(C)c1ccc(/C=N/NC(=O)c2ccccn2)cc1 ?
VDR inhibitor: inconclusive

How did COC(=O)[C@H](Cc1ccccc1)NC(=O)O[C@@H]1C(=O)c2ccc(OC)cc2O[C@H]1c1ccc2c(c1)OCO2 do in these assays?
VDR inhibitor: -4%

How did CCOc1ccccc1NS(=O)(=O)c1ccc2c(c1)NC(=O)CCS2 do in these assays?
VDR inhibitor: 1%

How did Cc1ccccc1NS(=O)(=O)c1ccc2c3c(cccc13)C(=O)N2C do in these assays?
VDR inhibitor: 3%

What do the screens show for `COc1ccc(C(=O)NCCc2c[nH]c3ccc(OC)cc23)cc1`?
VDR inhibitor: -11%

How did NC(=O)CC(CC(=O)OCc1ccccc1)c1ccccc1 (centres undefined) do in these assays?
VDR inhibitor: 30%

How did N#CCC(=O)Nc1ncn(Cc2ccccc2Cl)n1 do in these assays?
VDR inhibitor: 5%

What do the screens show for `Cc1ccc(NC(=O)CS(=O)CC(=O)N2CCN(c3ccccc3)CC2)cc1` (centres undefined)?
VDR inhibitor: 8%

How did CCN1CCN(S(=O)(=O)c2ccc(Cl)c(C(=O)Nc3ccccc3N3CCCCC3)c2)CC1 do in these assays?
VDR inhibitor: -4%

Results for O=C(/C=C\NCC(=O)c1ccccc1)c1ccc2ccccc2c1 ?
VDR inhibitor: inconclusive

How did O=C(N/N=C/c1ccco1)c1ccc2nc[nH]c2c1 do in these assays?
VDR inhibitor: 4%

Two consecutive compounds out of the list so far, for reference:
Results for O=C(/C=C\NCC(=O)c1ccccc1)c1ccc2ccccc2c1 ?
VDR inhibitor: inconclusive

How did O=C(N/N=C/c1ccco1)c1ccc2nc[nH]c2c1 do in these assays?
VDR inhibitor: 4%

The results go on:
What do the screens show for `COc1cccc(C2C(C#N)=C(C)NC3=C2C(=O)CC(C)(C)C3)c1` (centres undefined)?
VDR inhibitor: -17%

What do the screens show for `COc1ccc(-c2cc3ccccc3n2CC(O)Cn2nc(C)cc2C)cc1` (centres undefined)?
VDR inhibitor: 7%

Results for CC1Cn2cc(C(=O)Nc3ccccc3C(F)(F)F)c(=O)c3c(Cl)ccc(c32)O1 (centres undefined) ?
VDR inhibitor: 13%

How did CC/C(=N\NC(=O)CNC(=O)/C=C/c1ccco1)c1ccccc1 do in these assays?
VDR inhibitor: 22%

Of the compounds above, these have an NH in an aromatic ring.
What do the screens show for `N#Cc1c2c(c(-c3ccccc3Cl)[nH]c1=S)CCCC2`?
VDR inhibitor: 3%

How did CC(Sc1n[nH]c(-c2ccccc2)n1)C(=O)c1c(N)n(C)c(=O)n(C)c1=O (centres undefined) do in these assays?
VDR inhibitor: -3%

How did COc1ccc(-c2[nH]c(-c3cccc(OC)c3)nc2SCC(=O)NC2CCCC2)cc1 do in these assays?
VDR inhibitor: 3%&-7%

Results for CCNC(=S)N(CCc1c(C)[nH]c2ccc(F)cc12)Cc1cccnc1 ?
VDR inhibitor: -29%

How did COc1ccc(OC)c(-c2cc(C(F)(F)F)c3c(n2)sc2c(O)cc(=O)[nH]c23)c1 do in these assays?
VDR inhibitor: -9%

Results for Nc1c(-c2ccccc2)n[nH]c1-c1ccccc1 ?
VDR inhibitor: -10%

Results for Cc1ccccc1Nc1nnc(SCC(=O)c2c(N)n(C3CC3)c(=O)[nH]c2=O)s1 ?
VDR inhibitor: -20%

Results for CCN(Cc1ccncc1)Cc1cn[nH]c1-c1cc(OC)c(OC)c(OC)c1 ?
VDR inhibitor: -3%

Results for CC(C)c1nc(SCC(=O)Nc2c[nH]c(=O)[nH]c2=O)c2cnn(-c3ccccc3)c2n1 ?
VDR inhibitor: 2%

Results for O=c1c2ccccc2[nH]c(=S)n1CCCN1CCOCC1 ?
VDR inhibitor: -12%

How did COc1cccc(NC(=O)CSc2cc(C)[nH]c(=O)n2)c1 do in these assays?
VDR inhibitor: -3%

What do the screens show for `COc1ccc(C(=O)NCCc2c[nH]c3ccc(OC)cc23)cc1`?
VDR inhibitor: -11%

How did O=C(N/N=C/c1ccco1)c1ccc2nc[nH]c2c1 do in these assays?
VDR inhibitor: 4%

The list is partial; the hit share may differ from the screen's.
